# Compound activity as filed in PubChem BioAssay.
# UCH37 inh: blocks the human deubiquitinase UCH37. Q9Y5K5. purified proteasome/UCH37, Ub-AMC cleavage fluorescence. inhibition, % (concentration not given with the values). 0.33% of 330,000 active;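 active = mean of two replicates above 20%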;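 note: 0% = compound-free wells with enzyme and 100% = wells lacking proteasome; stock transfer was 100 nL into about 20 µL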
# Target sequence (Q9Y5K5 whole entry, looked up): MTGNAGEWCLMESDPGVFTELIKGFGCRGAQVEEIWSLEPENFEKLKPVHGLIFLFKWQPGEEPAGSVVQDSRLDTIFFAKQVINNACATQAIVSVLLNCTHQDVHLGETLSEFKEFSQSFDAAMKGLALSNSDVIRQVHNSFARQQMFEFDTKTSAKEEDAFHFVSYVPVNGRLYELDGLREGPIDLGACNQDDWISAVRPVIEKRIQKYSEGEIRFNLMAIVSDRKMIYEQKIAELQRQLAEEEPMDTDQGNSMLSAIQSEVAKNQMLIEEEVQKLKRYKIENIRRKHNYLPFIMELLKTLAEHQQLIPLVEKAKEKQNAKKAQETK
#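 assay system = human UCH37 enzyme supplied as purified proteasome complex | amount = proteasome at 0.15 nM in the dispensed enzyme solution | schedule = 30 min compound-proteasome preincubation then 25 min substrate reaction, room temperature | measured by = fluorescence, ex 355 nm, em 460 nm | benchmarks = no-proteasome wells (full inhibition) and compound-free wells (no inhibition)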
# Vif TR-FRET: inhibitors of Vif binding to APOBEC3G peptide, primary screen, biochemical, TR-FRET, GST-Vif 1-94, biotin-A3G peptide, dose response retest (AID 1117319) | TR-FRET GST-Vif / biotin-A3G peptide binding; higher % means a stronger effect; test concentration not given here; strong numbers were not always called active | 0.57% of 260,000 active | one-dose inhibition, %; IC50 in µM for titrated hits;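 active = above the screen mean plus three standard deviations and confirmed in dose response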;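 note: Vif residues 1-94 fused to GST binding biotinylated APOBEC3G peptide 110-148; 0% = full assay without inhibitor and 100% = GST in place of GST-Vif; retest series ran down from 100 µM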
# Beta2AR agonist: human beta-2 adrenergic receptor agonism by FAP. P07550. Am2.2-beta2AR cells, FAP receptor internalization, flow cytometry; reference of the scale not given here. response, % (test concentration not listed). 0.43% of 340,000 active;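 active = response above a set limit, near 3 SD of response in nonfluorescent compounds, cut at about 42% in these data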;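 note: stock transfer was 100 nL into about 11 µL; a reference agonist was the positive control; negative values mostly stem from fluorescent compounds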
# LANA-H2B inh: blocks KSHV LANA binding to histone H2A/H2B; cell-free LANA-H2A/H2B peptide, fluorescence polarization; inhibition, % (no concentration beside the values); 0.6% of 320,000 active; in the data active = inhibition mostly above about 10%, no sharp cut-off; inactive = mostly below about 6.7%;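 note: stock transfer was 7.5 nL into about 10 µL; 0% = median of vehicle wells and 100% = median of positive control wells; one replicate is shown; the record names a cut of 25% in any replicate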
# Ecoli growth: blocks Escherichia coli growth; OD600, 23 h; active compounds read low; OD600 absorbance (test concentration not listed); 0.21% of 330,000 active;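 active = OD600 absorbance below the run mean of sample wells minus 3.6 SD, in any replicate, cut at about 0.56 in these data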;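 note: stock transfer was 300 nL into about 60 µL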
# HNF4A DNA FP: change in binding of human HNF4 alpha to DNA | HNF4a-FITC DNA binding, fluorescence polarization, 1 h | AID 1224865 | P41235 | activity change, % at 10 µM | 0.3% of 360,000 active; in the data active = activity change above about 30%, passing the limit was not always enough;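 note: controls were the assay level and a saturating level of protein; the project sought stronger binding though the title names inhibitors; some compounds called inactive have numbers as strong as hits; positive values seem to mean higher polarization but the record does not say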
# Target sequence (P41235 whole entry, looked up): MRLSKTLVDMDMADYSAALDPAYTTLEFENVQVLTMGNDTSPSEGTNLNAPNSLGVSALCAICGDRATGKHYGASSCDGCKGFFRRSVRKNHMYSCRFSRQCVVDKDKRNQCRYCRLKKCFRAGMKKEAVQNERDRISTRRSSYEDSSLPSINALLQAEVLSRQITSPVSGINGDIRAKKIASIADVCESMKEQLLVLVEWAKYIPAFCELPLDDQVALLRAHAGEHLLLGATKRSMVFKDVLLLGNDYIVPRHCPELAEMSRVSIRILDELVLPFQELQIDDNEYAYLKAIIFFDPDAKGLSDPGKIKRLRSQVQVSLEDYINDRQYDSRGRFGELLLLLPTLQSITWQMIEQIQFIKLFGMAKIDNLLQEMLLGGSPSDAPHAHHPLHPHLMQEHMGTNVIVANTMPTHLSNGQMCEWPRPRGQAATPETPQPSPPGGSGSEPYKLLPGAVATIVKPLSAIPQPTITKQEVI
# Bfl-1 A1 inh: inhibitors of the anti-apoptotic protein A1, read as caspase activation; AID 2462; caspase activation, % (no concentration beside the values); 0.066% of 330,000 active; MEF A1-2A-BIM cells, Caspase-Glo 3/7 luminescence, 3 h; percent of clofoctol response, vehicle zero;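 active = over half of replicate activation scores above 10%, or exactly half above 10 with the replicate mean above 10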;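 note: wells of about 30 µL received 50 nL stock; many hits fall short of the cut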
# * marks the source's active call; other numbers are inactive results; · = no result given; & = joins results of further samples. Compounds were not picked by outcome. About 2.1% of those tested had a hit in this group.
SMILES,UCH37 inh,Vif TR-FRET,Beta2AR agonist,LANA-H2B inh,Ecoli growth,HNF4A DNA FP,Bfl-1 A1 inh
O=C(O)C1C2C=CC(CC2)C1C(=O)O (stereo unspecified),3.6,-2%,-4,-5.3,0.65,-2.0,0.5
COc1ccc(N2C(=O)CC(N(Cc3ccc(S(N)(=O)=O)cc3)C(C)=O)C2=O)cc1 (stereo unspecified),3.1,-2%&2%,-3,0.5,0.7,0.6,0.2
Cc1ccccc1OCc1nnc(SCC(=O)Nc2ccc3c(c2)OCO3)n1C,1.2,5%,2,1.9,0.7,-3.8,0.1
Cc1ccc2c(Cl)c(C(=O)Nc3cccnc3)sc2c1,0.2,-11%,-10,1.8,0.67,-1.1,1.0
O=C(CNC(=O)c1ccc(Cl)cc1Cl)OCCOc1ccccc1,0.9,-6%,-1,6.0,0.64,-1.4,0.9
CCCCCCSc1ccc([C@@H]2[C@@H]3C(=O)N(C)C(=O)[C@@H]3[C@]3(C(=O)OC)CCCCN23)cc1OC,3.0,·,-3,3.9,·,0.2,0.9
O=C(NCCN1CCCC1)C1(S(=O)(=O)c2ccc(Cl)cc2)CC1,1.3,-1%,3,6.3,0.67,1.2,0.2
O=c1c2ccccc2nc(-c2ccco2)n1/N=C/c1ccco1,·,3%,-8,1.1,·,-3.5,-1.4
O=C1CCCC(O)=C1N=Nc1ccc2ncsc2c1,12,2%,-14,1.2,0.65,-4.8,0.7
CCc1nc(SCC(=O)NNC(=O)c2ccc(OC)cc2)c2ccccc2n1,4.4,0%,-10,1.9,0.66,-1.2,-0.3
c1ccc(Cc2nn3c(COc4ccccc4)nnc3s2)cc1,0.9,-2%,-8,-0.5,0.72,-7.4,0.1
Cc1cnc(C(=O)OCC(=O)Nc2ccc(Cl)cc2Cl)cn1,-1.4,8%,-5,3.9,0.76,0.5,0.1
CCOC(=O)c1ccc(NC(=O)CN2C(=O)CN(C(C)=O)C2=S)cc1,1.1,6%,-6,1.2,0.65,-6.5,-0.6
COc1ccc(OC)c(NC(=O)CSc2nc3nc(C)cc(C)n3n2)c1,0.4,-11%,1,·,0.66,3.8,-0.5
CCOC(=O)c1cc(NC(=O)c2c(C)noc2C)cc(C(=O)OCC)c1,1.7,8%,3,-0.1,0.7,-2.6,0.7
Clc1ccc(-n2cccc2CN2CCc3c([nH]c4ccccc34)C2c2ccccn2)nc1 (stereo unspecified),0.1,7%,1,1.7,0.7,1.5,0.8
Cc1ccc(CN2C(=O)N/C(=C/c3ccc4c(c3)n(C)c(=O)n4C)C2=O)cc1,-11,·,·,1.2,0.64,·,0.1
O=c1[nH]c(NNC(=S)NC2CCCCC2)nc2c1C1(CCCC1)Cc1ccccc1-2,-7.3,·,68*,-5.7,0.7,2.5,1.5
O=c1cc(N2CCOCC2)[nH]c(=O)n1C1CCCCC1,1.7,-3%,1,-1.9,0.71,-0.5,0.6
Cc1nc(-c2ccc(S(=O)(=O)N3CCN(C(c4ccccc4)c4ccccc4)CC3)s2)cs1,-1.0,-14%,-7,0.9,0.64,1.2,0.8
CCOC(=O)C1(CCOc2ccccc2)CCN(CC(O)CO)CC1 (stereo unspecified),6.7,·,-3,5.9,0.66,6.3,1.2
CC(=O)c1c(C)[nH]c(C(=O)OCC(=O)N2CCN(S(=O)(=O)c3ccc(C)cc3C)CC2)c1C,4.3,4%,6,-0.4,0.7,3.0,1.1
CC(C(=O)N(C)Cc1ccccc1)N1CCN(C/C=C/c2ccccc2)CC1 (stereo unspecified),2.1,2%,-2,-1.1,0.65,-0.8,0.2
O=C(NC1CCCC1)C(c1cccnc1)N(C(=O)c1ccco1)c1ccc(F)cc1 (stereo unspecified),1.2,·,19,-2.1,0.7,0.3,-0.3

# Some of the entries above, set out differently:
structure	UCH37 inh	Vif TR-FRET	Beta2AR agonist	LANA-H2B inh	Ecoli growth	HNF4A DNA FP	Bfl-1 A1 inh
Clc1ccc(-n2cccc2CN2CCc3c([nH]c4ccccc34)C2c2ccccn2)nc1 (stereo unspecified)	0.1	7%	1	1.7	0.7	1.5	0.8
Cc1ccc(CN2C(=O)N/C(=C/c3ccc4c(c3)n(C)c(=O)n4C)C2=O)cc1	-11	·	·	1.2	0.64	·	0.1
O=c1[nH]c(NNC(=S)NC2CCCCC2)nc2c1C1(CCCC1)Cc1ccccc1-2	-7.3	·	68*	-5.7	0.7	2.5	1.5
O=c1cc(N2CCOCC2)[nH]c(=O)n1C1CCCCC1	1.7	-3%	1	-1.9	0.71	-0.5	0.6
Cc1nc(-c2ccc(S(=O)(=O)N3CCN(C(c4ccccc4)c4ccccc4)CC3)s2)cs1	-1.0	-14%	-7	0.9	0.64	1.2	0.8
CCOC(=O)C1(CCOc2ccccc2)CCN(CC(O)CO)CC1 (stereo unspecified)	6.7	·	-3	5.9	0.66	6.3	1.2
CC(=O)c1c(C)[nH]c(C(=O)OCC(=O)N2CCN(S(=O)(=O)c3ccc(C)cc3C)CC2)c1C	4.3	4%	6	-0.4	0.7	3.0	1.1

# Next section:
SMILES,UCH37 inh,Vif TR-FRET,Beta2AR agonist,LANA-H2B inh,Ecoli growth,HNF4A DNA FP,Bfl-1 A1 inh
N#Cc1ccc(NC(=O)Cn2c3[n+](c4ccc(C(F)(F)F)cc42)CCCCC3)cc1,0.3,12%,-3,-1.9,0.66,-1.3,0.6
CCCCNC(=O)CCN1N=C(c2ccccc2)CCC1=O,3.0,-3%,5,-3.9,0.66,3.2,-0.3
O=C(COC(=O)C1CCCCC1)Nc1ccccc1OC(F)F,-3.5,-2%,-2,-1.0,0.69,1.9,1.6
Cc1cc(C)c(C(N)=O)c(NC(=O)Nc2ccccc2)n1,3.7,-1%,-3,-1.1,0.7,0.5,-0.4
O=C(NNC(=O)c1cccs1)c1csc(N2CCOCC2)n1,3.8,11%,-8,0.1,0.71,3.7,0.2
CCCCn1c(CN2CCN(c3ccccc3)CC2)nc2c1c(=O)n(C)c(=O)n2C,-0.1,-3%,-22,-0.1,0.66,2.9,-0.2
CCCC(=O)Nc1cccc(C(=O)Nc2nccs2)c1,4.3,1%,-16,-0.8,0.68,-3.8,-0.9
Cn1c(SCC(=O)Nc2ccccc2)nc2ccccc2c1=O,2.0,9%,5,-0.9,0.69,2.3,0.2
O=C1CSC(c2cccc(F)c2)N1c1c(F)cccc1F (stereo unspecified),0.5,-2%,2,2.3,0.67,-0.8,1.0
CCCn1c(SCC(=O)NC2CCCc3ccccc32)n[nH]c1=O (stereo unspecified),-0.5,-8%,1,-4.7,0.68,-2.7,0.0
CC[C@]1(c2ccccc2C)ON(c2ccccc2C(F)(F)F)C1=O,0.8,·,-1,-1.7,·,-1.3,0.6
O=C(N/N=C/c1ccc(OCc2ccccc2)cc1)c1ccco1,·,2%,-12,-5.1,·,3.5,-4.4
COc1ccc(NS(=O)(=O)c2ccc(O)c(C(=O)OCC(=O)Nc3ccc4c(c3)OCCO4)c2)cc1,-0.5,0%,-4,3.8,0.72,0.3,-0.3
CCOC(=O)c1cc(NC(=O)N(C(C)C)C2CCCCC2)c(C)nc1C,3.8,8%,-8,-1.9,0.68,2.7,0.5
S=C(NCCCN1CCN(CCCNC(=S)NC2CCCCC2)CC1)NC1CCCCC1,0.8,-4%,-3,·,0.67,0.8,·
CNC(=S)N/N=C(\C)c1cccc([N+](=O)[O-])c1,·,21%,-6,-2.7,·,-0.3,0.0
CCC/C=C1/CCCOC(C(=O)NCCN2CCOCC2)(C(F)(F)F)C1 (stereo unspecified),1.7,·,-1,2.1,·,1.4,-1.0
CSc1ccc(Cl)c(C(=O)NCC(C)C)c1,0.0,7%,1,1.2,0.65,-0.4,0.6
O=S(=O)(Nc1ccccc1)c1ccc(NS(=O)(=O)c2c(F)cccc2F)cc1,4.6,·,6,0.7,0.66,3.4,0.2
CCOc1ccc(-c2cc(C(=O)N/N=C(\C)c3cccnc3)c3ccccc3n2)c(OCC)c1,·,·,-3,1.0,·,-0.9,1.2
Cc1cc(C(=O)COC(=O)c2ccccc2O)c(C)n1CC1CCCO1 (stereo unspecified),-0.1,-14%,-4,2.7,0.7,0.6,-10.0
O=C(NCCCn1ccnc1)c1cc2c(s1)CCCC2,-1.1,·,-3,-1.5,0.66,-0.1,1.0
COc1ccc(CC(=O)N/N=C/c2c(C)n(C)c3ccccc23)cc1OC,·,4%,5,-3.9,·,-1.0,-0.5
CCN1C(=O)c2cccc3c(S(=O)(=O)Nc4ccccc4OC)ccc1c23,-0.8,-4%,0,-3.0,0.66,-2.2,-0.3
O=C(C[C@@H]1C/C=C\C[C@@H](Cc2ccc(F)cc2)C(=O)OC[C@@H]2CCCN2C1=O)NCCO,0.2,-7%,-4,·,0.69,-3.1,·
Cc1n[nH]c(C)c1CCN(C)C(=O)C1CCC(=O)N(CC2CCCCC2)C1 (stereo unspecified),3.7,-13%,-3,-0.7,0.7,0.3,-0.1
N/C(=N\OC(=O)c1ccc(Cl)c(Cl)c1)c1cccnc1,-1.9,0%,2,0.1,0.66,-0.9,-5.0
Cc1ccc(C(=O)N2CC=C(c3ccccc3)CC2)s1,4.2,0%,1,0.5,0.66,0.7,1.3
CC(=O)Nc1ccc(S(=O)(=O)N2CCc3c(Cl)cccc3C2)cc1,4.0,-8%,-5,-2.4,0.68,4.4,0.5
COc1ccccc1CN(C)C(=O)CSCC(=O)Nc1ccccc1F,2.2,·,5,0.5,0.71,1.9,1.8
COCCn1cnc2c(c1=O)c1nc3ccccc3nc1n2/N=C/c1ccco1,·,-9%,-8,5.0,·,-1.5,-0.3
O=C(NCCCN1CCOCC1)c1cccc(NS(=O)(=O)c2ccc(Br)cc2)c1,3.5,-6%,-1,2.7,0.67,1.3,-0.9
CSCC[C@H](NC(=O)[C@@H]1Cc2c([nH]c3ccccc23)C2c3ccccc3C(=O)N21)C(=O)NCC1CCCO1 (stereo partly specified),1.6,·,-15,-5.5,0.74,1.1,0.3
O=C(NCCCn1cccn1)C1CCC(=O)N(Cc2ccccc2F)C1 (stereo unspecified),5.6,·,-3,-3.5,0.7,-12,-0.2
Cc1ccsc1/C=N/NC(=O)c1ccc2nc[nH]c2c1,·,-6%,-3,-1.1,·,1.7,-1.3
Cc1ccc(CNC(=O)c2ccc3c(c2)S(=O)(=O)c2ccccc2C3=O)cc1,2.9,·,3,2.8,0.69,0.5,0.0
Cn1c(N)c(C(=O)CSc2nnc(-c3ccccc3F)n2N)c(=O)n(C)c1=O,4.0,-1%,-10,1.5,0.68,-6.3,-0.1
CN(C(=O)c1ccc(NC(=O)Cc2cccc(NC(=O)C3CCN(C(=O)C4CCC4)CC3)c2)cc1)C1CCCC1,1.3,·,5,-0.1,0.71,-0.6,-2.0
CCC1(C)OC(=O)N2CCc3c(C)[nH]c4c(C)ccc(c34)C21C (stereo unspecified),0.8,1%,3,-0.1,0.77,4.1,1.4
CNc1ccc(/C=C2\CSc3ccccc3C2=O)cc1[N+](=O)[O-],2.7,-1%,-3,-0.7,0.74,1.4,1.0
COC(=O)C1=NN(C(=O)c2ccccc2)C(C)(O)C1 (stereo unspecified),1.4,4%,19,-0.8,0.66,1.1,-0.3
Cc1cc(NC(=O)CSc2nnc(-c3ccncc3)n2-c2ccc(F)cc2)no1,-0.2,·,5,-2.2,0.69,195,-0.2
Cc1ccc(Oc2ccc(OCC(=O)NC(CC(C)C)C(=O)O)cc2)cc1 (stereo unspecified),-1.9,5%,2,2.7,0.7,1.6,0.2
Cc1ccc(NC(=O)C2CCCN2S(=O)(=O)c2ccc3c(c2)n(C)c(=O)c(=O)n3C)c(C)c1 (stereo unspecified),3.5,-123%,-4,-1.7,0.68,2.6,0.4
Cc1ccc(OCCC(=O)OCC(=O)Nc2ccc(F)cc2)cc1,3.7,4%,0,2.1,0.63,0.1,-0.4
